# High-throughput results deposited in PubChem BioAssay by SRMLSC.
# H5N1 CPE: MDCK cell protection from H5N1 avian flu; cytopathic effect, luminescence, 72 h; active compounds read high; no value below 0 was filed and about half of the inactive calls have no number; reference of the scale not given here; inhibition, % at 50 µM; 0.07% of 96,000 active; in the data active = inhibition above about 25%
# * = called active by the depositor; i = inactive. An excerpt (hit frequency here may not be typical).
SMILES,H5N1 CPE
O=C(NCc1ccco1)C(c1cccnc1)N(C(=O)Cn1nnc2ccccc21)c1ccccc1 (stereo unspecified),1.5
S=C(NCCSCc1ccc(Cl)cc1Cl)Nc1ccccc1,i
CC(NC(=O)c1ccccc1)C(c1cccs1)N1CCOCC1 (stereo unspecified),0.2
Cc1cc(SCCC(=O)O)nc2c(C)cccc12,i
CC(C)(C)OC(=O)N1CCC(C(N)=O)CC1,i
Cc1csc(NC(=O)CSc2nnc(Cc3cccn3C)n2-c2ccc(F)cc2)n1,i
CCOC(=O)N1CCC(NC(=O)c2cc3sccc3n2CC)CC1,0.4
COc1cc(NC(=O)c2ccco2)ccc1NC(=O)c1ccccc1Cl,i
O=C(NCCC1=CCCCC1)C1CCCN(S(=O)(=O)c2cccnc2)C1 (stereo unspecified),1.8
CCOc1ccc(CN(CCO)CCO)cc1C(=O)OC,i
CC1CCCC(NC(=S)Nc2ccc(SC(F)F)cc2)C1C (stereo unspecified),2.0
Cc1ccc2nc(N3CCC(C(=O)O)CC3)nc(-c3ccccc3)c2c1,0.3
NC(=O)c1oc2ccccc2c1NC(=O)c1ccccc1,i
Cc1ccc(S(=O)(=O)NCC(=O)Nc2ccc(C(F)(F)F)cc2)cc1,i
O=C(NCc1ccc2c(c1)OCO2)C1CCCN1C(=O)Nc1ccc(F)cc1 (stereo unspecified),i
Cc1ccc(/C=N/N2CCN(Cc3ccccc3)CC2)o1,i
Cc1cc(C)c(S(=O)(=O)NCC2CCC(C(=O)NCc3ccc4c(c3)OCO4)CC2)c(C)c1 (stereo unspecified),i
COC(=O)c1c(NC(=O)c2ccoc2C)sc2c1CCC2,1.0
O=C(Nc1ccccc1)Nc1ccc(C(=O)N2CCOCC2)cc1,i
Cc1ccc(-c2nn(CC(=O)NC(C)c3ccccc3)c(=O)c3ccccc23)cc1 (stereo unspecified),i
O=C(Nc1ccc(Cl)cc1)c1ccc(-n2cccn2)c([N+](=O)[O-])c1,4.8
C=C1c2cc(C)ccc2NC(=O)N1c1ccc(C)cc1,i
COc1ccc(-c2n[nH]c(=S)n2C2CCCCC2)cc1,i
COc1ccc(-c2nnc3ccc(SC)nn23)cc1,i
CCC(C)[C@@H](C(=O)Nc1ccc(OC)c(OC)c1)N1Cc2ccccc2C1=O (stereo partly specified),i
CCCCn1c(O)c(C(CC)=NCCN2CCCCC2)c(=O)[nH]c1=O,1.2
NC1=NC2(CCCCC2)N(c2cccc(Cl)c2)C(N)=N1,i
COc1cccc(-c2nn(C)c3sc(C(=O)NCc4ccc(C)cc4)cc23)c1,i
CCS(=O)(=O)Nc1cc(-c2nc3cccnc3s2)ccc1C,0.5
CCOC(=O)CSc1nc2sccc2c(=O)[nH]1,1.2
COc1ccc2[nH]c(C)c(CCN(Cc3cccs3)C(=S)Nc3cccc(F)c3)c2c1,i
O=C(NCCCNCc1ccccc1)c1ccccn1,i
Cc1nnc(SCC(C)C)[nH]c1=O,i
CCc1c(C)n2nc(C)cc2[nH]c1=O,1.0
Cc1nc2nc(C)c(CCC(=O)NC(C)c3ccc4c(c3)OCCO4)c(C)n2n1 (stereo unspecified),0.1
O=C(Nc1ccc(-c2nnc3n2CCCCC3)cc1)c1cnccn1,0.8
Cn1c(=O)c2c(ncn2CC(O)CNc2ccc(Cl)cc2)n(C)c1=O (stereo unspecified),0.2
COc1ccccc1N=C1SCCCN1C,i
CCC(=O)Nc1sc2c(c1C(N)=O)CCN(C(C)=O)C2,0.3
O=c1cc(-c2cccc3ccccc23)[nH][nH]1,i
CCCN1Cc2cccc(C(=O)N3CCN(c4cc(Cl)ccc4C)CC3)c2C1=O,i
Cc1ccc(Cl)cc1NC(=O)c1cccc(OC(F)F)c1,0.2
COCCn1nnnc1C(c1ccccc1OC)N1CCN(c2ccccc2)CC1 (stereo unspecified),4.0
O=c1c(C=Nc2ccc(Oc3ccccc3)cc2)c[nH]n1-c1cccc(Cl)n1,i
N#C/C(=C\c1ccc(-c2cccc(Cl)c2)o1)C(=O)Nc1cccc2cccnc12,i
Cc1ccc(C(=O)Nc2ccc(O)cc2C(=O)O)cc1,i
Cc1noc(C)c1S(=O)(=O)NCC(=O)O,i
Clc1ccccc1-c1ccc(/C=N/n2cnnc2)o1,i
CCn1c(CNc2cccc(Cl)c2)nnc1SCC(=O)OC1CCCCC1,i
O=C(COc1ccc(Cl)cc1Cl)NCc1ccncc1,0.1
N#CCSc1nc2c(cc1C#N)CCCC2,0.3
Cc1ccc2[nH]c3c(N4CCCCCC4)ncnc3c2c1,4.0
CC1=C(C#N)C(=O)OC(C)(C)C1,i
COc1ccc(O)c(C(=O)c2cnn(C(=O)c3cc(C)oc3C)c2)c1,0.9
C=CCSC1=C(C#N)C(c2ccccc2OCC)CC(=O)N1 (stereo unspecified),0.3
CCCCCCSc1ncc(C#N)c(N)n1,0.2
O=C(CCNS(=O)(=O)c1cccs1)NCc1cccs1,i
COc1ccc2c(c1)C1(Nc3ccccc3-c3nc4ccccc4n31)C(=O)N2 (stereo unspecified),0.4
Cc1nc2sc3c(c2c(=N)n1N)CC(C)(C)OC3,i
Cn1c(CN2CCOCC2)nc2cc(NC(=O)c3ccc(Cl)cc3)ccc21,0.3
# Later entries:
SMILES,H5N1 CPE
CCn1c(SC/C=C/c2ccccc2)nnc1-c1cnccn1,0.9
Cc1ccc(-n2nnnc2SCC(=O)N2c3ccccc3NC(=O)C2(C)C)cc1,0.2
CC(=O)NN1C(=O)c2ccc(Oc3ccc([N+](=O)[O-])cc3)cc2C1=O,0.2
COc1ccccc1N1CCN(Cc2ccc(Br)o2)CC1,i
COc1ccc(OC)c(NC(=O)COC(=O)c2ccc(-n3cnnn3)cc2)c1,i
CCOC(=O)Cn1c(=O)n(Cc2ccco2)c(=O)c2ccc(C(=O)NC3CCCC3)cc21,i
COc1ccc(C2C(C(C)=O)=C(C)N=c3s/c(=C/c4ccc5c(c4)OCO5)c(=O)n32)cc1 (stereo unspecified),1.1
Cc1cccc(N2C(=O)CC(N3CCN(C(=O)c4ccccc4)CC3)C2=O)c1 (stereo unspecified),0.4
Cn1ccnc1Sc1nc2ccccc2nc1NS(=O)(=O)c1ccccc1,i
O=C1c2ccccc2C(=O)N1CCN1CCc2ccccc21,0.4
CSc1nc(Oc2ccc(Cl)cc2)c2sccc2n1,8.6
O=S(Cc1ccc(Cl)cc1)CC(O)COc1ccc(Cl)cc1 (stereo unspecified),i
O=S(=O)(c1cc(-c2nc3ccccc3s2)ccc1Cl)N1CCOCC1,i
O=C(CSc1ccc(Cl)cc1)N1CCN(c2ccc([N+](=O)[O-])cc2Cl)CC1,3.3
CC1(C(=O)N(c2ccccc2)C(C(=O)NC2CCCC2)c2ccccn2)CC(=O)N=C2C=CC=CN21 (stereo unspecified),i
Cc1ccc(C(=O)/C=C/c2c(C)nn(-c3ccccc3)c2Cl)cc1,1.4
C=CCOC(=O)CCP(=O)(CCC(=O)OCC=C)c1ccccc1,i
O=C(Nc1cccc(C(=O)N2CCOCC2)c1)NC1CCCCC1,i
C=C(C)CSc1nnc(-c2cc(OC)c(OC)c(OC)c2)n1N,0.3
COc1cc(C)nc(OCCNC(=O)COc2ccc(Cl)cc2C)n1,i
CNC(=O)NCCN1CCCC1=O,1.2
O=C(COc1ccccc1)Nc1ccc(S(=O)(=O)N2CCCCCC2)cc1,i
COc1ccc(-c2nc(Cc3ccc(Cl)cc3)no2)cc1OC,1.1
CCOC(=O)c1oc2ccccc2c1CSc1nnnn1-c1ccc(C)cc1,0.8
C=CCn1cc(C(=O)N2CCN(C)CC2)c(=O)c2cc(S(=O)(=O)N3CCCC3)ccc21,1.7
O=C(CSc1nnc(-c2ccccc2O)o1)Oc1ccc(Br)cc1,i
CCC(CC)NC(=O)c1ccc2nc[nH]c2c1,i
O=C(C1CC1)N1CCC(c2nc(-c3ccc(S(=O)(=O)N4CCCC4)cc3)no2)CC1,i
O=C1c2ccccc2C(=O)N1CN(C(=O)COc1ccccc1)c1ccccc1,i
COc1ccc(OC)c(NC(=O)c2cn(C)c(=O)c3cc(OC)c(OC)cc23)c1,i
COc1cc([C@H]2[C@@H]3CCCC[C@]3(O)CCN2CC(=O)Nc2ccc(C)cc2)ccc1O,i
Cc1cc(C)cc(NC(=O)CN2CCCN(S(=O)(=O)c3ccc(Br)s3)CC2)c1,1.6
COc1ccc(S(=O)(=O)n2ccnc2)c2cccnc12,i
COc1cc(C(=O)NCc2cccc3ccccc23)cc(Cl)c1OC,i
O=c1[nH]c(=O)n(Cc2ccco2)c(O)c1C=NCc1ccco1,1.9
CCOC(=O)CNC(=O)CSc1nnc(-c2cccc(C)c2)n1-c1ccc(OC)cc1,i
CN=C1SC(CC(=O)Nc2sc(C)c(C)c2C(=O)OC)C(=O)N1C (stereo unspecified),i
CCCc1ccc(OC(=O)c2cccs2)cc1,i
C=CCOc1ccc2nc(NC(=O)OC)[nH]c2c1,0.3
COc1cc(N)ccc1C(=O)O,i

# Part of the list above in order of SMILES length, descending.
SMILES,H5N1 CPE
COc1cc([C@H]2[C@@H]3CCCC[C@]3(O)CCN2CC(=O)Nc2ccc(C)cc2)ccc1O,i
C=CCn1cc(C(=O)N2CCN(C)CC2)c(=O)c2cc(S(=O)(=O)N3CCCC3)ccc21,1.7
CCOC(=O)CNC(=O)CSc1nnc(-c2cccc(C)c2)n1-c1ccc(OC)cc1,i
O=C1c2ccccc2C(=O)N1CN(C(=O)COc1ccccc1)c1ccccc1,i
CCOC(=O)c1oc2ccccc2c1CSc1nnnn1-c1ccc(C)cc1,0.8
O=c1[nH]c(=O)n(Cc2ccco2)c(O)c1C=NCc1ccco1,1.9
O=C(CSc1nnc(-c2ccccc2O)o1)Oc1ccc(Br)cc1,i
COc1ccc(S(=O)(=O)n2ccnc2)c2cccnc12,i
C=CCOc1ccc2nc(NC(=O)OC)[nH]c2c1,0.3
COc1cc(N)ccc1C(=O)O,i

# (continued)
SMILES,H5N1 CPE
O=C(COC(=O)c1ccc(Br)o1)NCc1cccs1,1.2
O=C(O)Cn1cc2c(n1)CCCCC2,i
CCOC(=O)c1cc(CC)sc1NC(=O)c1ccc(N2C(=O)CCC2=O)cc1,i
CCOC(=O)N1CCN(C(=O)Cc2ccc(Cl)cc2)CC1,0.3
CCCc1oc(C(=O)O)cc1CN1CCCC1,0.3
CS(=O)(=O)N1N=C(c2ccc(Br)cc2)CC1c1ccc2c(c1)OCO2 (stereo unspecified),i
Cc1ccccc1OCC(=O)NNC(=O)Nc1ccc(Cl)cc1,i
NCCN1CCN(CCN)CC1,i
Cc1ccc2c(C)nc(Nc3nc(CSc4nnc(C)s4)cc(=O)[nH]3)nc2c1,0.9
CCCNC(=O)c1cc(-c2ccco2)on1,0.3
O=c1oc2ccccc2c2c1ncn2C1CCCCC1,1.5
COC(=O)CCC(=O)Nc1ccc(NC(=O)CCC(=O)OC)cc1,1.5
N#CCSc1nnc(N)s1,i
COC(=O)c1ccc(NC(=S)N2CCN(Cc3ccccc3)CC2)cc1,0.1
O=C(c1cnn2ccccc12)N1CCCc2ccccc21,2.2
COc1cccc(-c2noc(-c3cccnc3)n2)c1,2.9
O=S(=O)(Nc1ccncc1)c1ccccc1,i
O=C(NC(=S)NCCc1ccccc1)c1ccco1,9.5
CCCCOc1ccc(CNn2c(C)nc3ccccc3c2=O)cc1,i
COc1ccc(NC(=O)CCN2CCCCCC2)c(OC)c1,0.2
Cc1noc(C)c1S(=O)(=O)N1CCC(C(=O)N2CCC(N3CCCCC3)CC2)CC1,0.9
c1ccc(-c2cnc(-c3ccccc3)nc2)cc1,i
CC1(C)N=C(/C=N/O)C=[N+]1[O-],i
O=C(NCc1ccccc1)c1ccccc1OCC(=O)N1CCCCC1,1.3
Cc1cccc(NC(=O)Cn2nnc(-c3cccs3)n2)c1C,1.6
Cc1ccc(/C=N\NC(=O)C2COc3cc4ccccc4cc3O2)o1 (stereo unspecified),i
Nc1cc(N)nc(SCC(=O)NCC2CCCO2)n1 (stereo unspecified),0.6
CC(=O)c1c(C)[nH]c(C(=O)Nc2ccc(C)cn2)c1C,i
Cc1ccc(-c2noc(CC(c3ccccc3)c3ccccc3)n2)cc1,0.2
O=C1c2cccnc2C(=O)N1Cc1ccc2c(c1)OCO2,0.2
CC(=O)c1cccc(NC(=O)C2CC(c3ccc(F)cc3)=NO2)c1 (stereo unspecified),i
CCOC(=O)c1[nH]c(C)c(/C(O)=C2\C(=O)C(=O)N(CCN(C)C)C2c2ccncc2)c1C (stereo unspecified),0.2
CCCn1nnnc1SCC(=O)N1CCN(C(=O)c2ccco2)CC1,0.4
O=C(/C=C/N1CCOCC1)c1ccc(-c2ccccc2)cc1,1.1
COC(=O)CCC(=O)Nc1sc(C)c(C)c1C(N)=O,i
COC(=O)c1cc(CSc2nnc(NC3CCCCC3)s2)oc1C,i
Cc1ccc(/C=N/NC(=O)c2cccs2)cc1[N+](=O)[O-],1.2
Cc1ccc(CC(=O)NCCCc2ccccc2)cc1,0.0
O=C1CCCC2=C1C(c1ccc(OS(=O)(=O)c3ccc(Cl)cc3)cc1)C1=C(CCCC1=O)O2,0.5
CCCC1O[C@@H]2CC3C4CCC5=CC(=O)C=C[C@]5(C)C4C(OC(C)=O)C[C@]3(C)[C@]2(C(=O)COC(C)=O)O1 (stereo partly specified),1.4
NC(=O)CN1C(=O)C(O)(CC(=O)c2ccccc2O)c2ccccc21 (stereo unspecified),i
CCC(=O)Nc1nn(C)c2nc3c(C)cccc3cc12,1.4
CC(C)(C)c1cc(C(=O)N/N=C/c2ccc(F)cc2)n(-c2ccccc2)n1,i
COc1ccc(NC(=O)COC(=O)c2c3c(nc4ccccc24)CCCC3)cc1Cl,1.3
CCC(C)(C)NC(=O)c1ccc2c(c1)N(CC(=O)OC)C(=O)C(C)(C)O2,1.2

# Quoted at random: four entries already listed
SMILES,H5N1 CPE
CCS(=O)(=O)Nc1cc(-c2nc3cccnc3s2)ccc1C,0.5
CC(C)(C)c1cc(C(=O)N/N=C/c2ccc(F)cc2)n(-c2ccccc2)n1,i
C=C(C)CSc1nnc(-c2cc(OC)c(OC)c(OC)c2)n1N,0.3
COc1cccc(-c2nn(C)c3sc(C(=O)NCc4ccc(C)cc4)cc23)c1,i
